Screening data (PubChem)
LASV entry inh – qHTS for Inhibitors of binding or entry into cells for Lassa Virus; Lassa virus pseudotype entry inhibition, cell reporter; control for the full effect not named in the record; Potency, µM (top dose mostly 37.9 µM), for inactives: top-dose activity change, negative = inhibition, most hits filed as inhibitors; actives 1.2% (n = 300,000); AID 540256, 2011; active means well fitted inhibition curve with a large enough effect; inconclusive means small, poorly fitted or top-dose-only effect, or effect the other way; inactive means flat fitted curve, though single readings scatter; tested in HEK293 cells; note: % is set by controls: 0 for no effect and ±100 for the full control effect; nearly all actives have a fitted effect of over 50% in size; luciferase read-out
Cruzain inh noDet – qHTS Assay for Promiscuous and Specific Inhibitors of Cruzain (without detergent). Cruzipain (Trypanosoma cruzi), P25779. purified cruzain, Z-FR-AMC fluorescence, no detergent. Potency, µM, inactives show max response, negative = inhibition, most hits filed as inhibitors. actives 2.3% (n = 200,000). AID 1476, 2009;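 note: plate controls were enzyme without inhibitor for no effect and buffer without enzyme for full effect; nearly all actives have a fitted effect of over 40% in size; top concentration of the series not given in the record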
Target sequence (P25779 123-467 limits assumed): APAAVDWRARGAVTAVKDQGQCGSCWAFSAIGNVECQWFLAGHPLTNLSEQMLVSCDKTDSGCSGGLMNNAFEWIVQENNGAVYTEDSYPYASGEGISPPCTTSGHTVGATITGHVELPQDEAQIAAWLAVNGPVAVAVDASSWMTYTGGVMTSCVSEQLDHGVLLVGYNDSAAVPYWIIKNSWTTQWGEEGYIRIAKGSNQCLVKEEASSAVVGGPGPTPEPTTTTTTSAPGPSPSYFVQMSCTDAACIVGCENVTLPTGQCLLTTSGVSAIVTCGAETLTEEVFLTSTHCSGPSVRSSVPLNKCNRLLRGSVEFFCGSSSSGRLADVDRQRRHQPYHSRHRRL
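Detergent-free condition (0.00005% Triton X-100) in acetate buffer pH 5.5 with DTT. 1.5 nM enzyme and compound were pre-mixed 15 min, then 2 uM Z-FR-AMC substrate added; reaction progress from fluorescence change between first and third reads (60 s).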
RE007 growth inh – qHTS Assay for Inhibitors of the HIV-1 protein Vpr | actives 0.21% (n = 360,000) | S. pombe RE007 Vpr strain, BacTiter-Glo ATP luminescence, 24 h; control for the full effect not named in the record | Potency, µM (titrated, usually from 92.2 µM), for inactives: top-dose activity change, negative = less growth; active = well fitted falling curve with a large enough effect; inconclusive = small, poorly fitted or top-dose-only effect; inactive = no such curve, though single readings can be large or run the other way;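 note: % is set by controls: 0 for no effect and ±100 for the full control effect; nearly all actives have a fitted effect of over 50% in size; the assay follows cell death caused by Vpr and the record does not say whether a fall means rescue or toxicity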
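Fission yeast strain RE007, carrying one chromosomally integrated HIV-1 vpr copy, was seeded at OD 0.01 in PMG+AL medium with 23 nL pinned compound. After 24 h at 30 °C and 99% humidity, viability was read by BacTiter-Glo luminescence.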
NS1 function inh – qHTS Assay for Inhibitors of Influenza NS1 Protein Function | S. cerevisiae slowed by influenza A NS1, growth recovery by OD600 | Potency, µM (titrated, usually from 46.1 µM), for inactives: top-dose activity, positive = more growth | actives 0.4% (n = 270,000) | AID 2326, 2010; active means well fitted rising curve with a large enough effect; inconclusive means small, poorly fitted or top-dose-only effect; inactive means no such curve, though single readings can be large or run the other way; note: nearly all actives have a fitted effect of over 50% in size
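OD600 was taken as the measure of yeast growth restored by compound in an NS1-expressing S. cerevisiae strain. Cells had been washed out of glucose medium and diluted 1:100 into galactose -URA medium, pH 6.0.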
Marburg entry inh – qHTS for inhibitors of binding or entry into cells for Marburg Virus; Marburg virus pseudotyped entry inhibition, cell reporter; control for the full effect not named in the record; about a third of the inactives were read at about 46 µM; Potency, µM (series often up to 37.8 µM), inactives show top-dose activity change, negative = inhibition, hits mostly inhibitors; actives 1.8% (n = 300,000); active = well fitted inhibition curve with a large enough effect; inconclusive = small, poorly fitted or top-dose-only effect, or effect the other way; inactive = flat fitted curve, though single readings scatter; tested in HEK293 cells; about a fifth of its hits are not listed in these tables; note: % is set by controls: 0 for no effect and ±100 for the full control effect; luciferase read-out
Cruzain inh Det – qHTS Assay for Promiscuous and Specific Inhibitors of Cruzain (with detergent). purified cruzain, Z-FR-AMC fluorescence, 0.01% Triton. Potency, µM, without a hit: max response, negative = inhibition, most hits filed as inhibitors. actives 0.43% (n = 200,000). AID 1478, 2009;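 note: plate controls were neutral wells for no effect and buffer without enzyme for full effect; nearly all actives have a fitted effect of over 40% in size; top concentration of the series not given in the record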
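Cruzain (1.5 nM) preincubated 15 min at RT with compound in 100 mM sodium acetate pH 5.5, 5 mM DTT, 0.01% Triton X-100. Reaction started with 2 uM Z-FR-AMC; AMC fluorescence (ex 360/em 450 nm) change over 60 s gave rate.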
2A StopGo – High Throughput Screening for Foot and Mouth Disease Virus Antivirals; human cells with a luciferase reporter of 2A StopGo recoding; control for the full effect not named in the record; Potency, µM (titrated, usually from 57.9 µM), for the others: at the top dose signal change, negative = less light; actives 1.2% (n = 410,000); active = well fitted falling curve with a large enough effect; inconclusive = small, poorly fitted or top-dose-only effect; inactive = no such curve, though single readings can be large or run the other way; tested in HEK293T cells; note: % is set by controls: 0 for no effect and ±100 for the full control effect; nearly all actives have a fitted effect of over 45% in size; luciferase light after 4 h
SARS PLpro yeast – qHTS of Yeast-based Assay for SARS-CoV PLP; actives 0.19% (n = 330,000); Potency, µM (titrated, usually from 32.9 µM), inactives show at the highest dose activity, positive = growth rescue; S. cerevisiae expressing SARS-CoV PLpro, growth rescue; control for the full effect not named in the record; active means well fitted rising curve with a large enough effect; inconclusive means small, poorly fitted or top-dose-only effect; inactive means no such curve, though single readings can be large or run the other way; note: 0% is about no effect; nearly all actives have a fitted effect of over 55% in size; growth read by luminescence after 48 h
* hit, by the source's call; & = joins results of further samples; [ ] = dose if it differs, or a comment. Unless noted, calls come from the whole dose curve; as a rule, active = well fitted curve in the direction sought with a large enough effect; inconclusive = small, poorly fitted or top-dose-only effect, or another doubt; inactive = no such curve, though single readings can be large; an effect the other way counts as inactive or inconclusive. Potency is the fitted concentration of half-maximal effect.

For O=[N+]([O-])c1ccc(/C=N/N2CCN(c3ccncc3S(=O)(=O)N3CCCCC3)CC2)cc1 the results were LASV entry inh 5%, Cruzain inh noDet 15%, RE007 growth inh 20%, NS1 function inh 10%, Marburg entry inh 9%, Cruzain inh Det -1.1%, 2A StopGo -10% and SARS PLpro yeast 3.2µM*.
Cc1nc2ccccc2n1/C(=N\S(=O)(=O)c1ccccc1)c1ccccc1 was read as LASV entry inh 0%, Cruzain inh noDet 3%, RE007 growth inh -17%, NS1 function inh -2%, Marburg entry inh inconclusive, Cruzain inh Det -0.2%, 2A StopGo -6% and SARS PLpro yeast -9%.
`CCC(CO)Nc1ncnc2c1cnn2-c1ccc(C)cc1` (stereo unspecified) gave LASV entry inh 1%[46.1 µM], Cruzain inh noDet 4%, Cruzain inh Det 0.9% and 2A StopGo inconclusive.
Screening CCOCCc1nn2c(=O)cc(COC(=O)c3ccccc3NC(=O)c3ccccc3F)nc2s1 returned LASV entry inh 14%[46.1 µM], Cruzain inh noDet -6%, Cruzain inh Det -0.4% and 2A StopGo inconclusive.
CCn1c(SCC(=O)NC2CCCCC2)nnc1-c1ccco1 was read as LASV entry inh -12%[46.1 µM], RE007 growth inh -2%, NS1 function inh 8%, Marburg entry inh 13%[46.1 µM], 2A StopGo 5% and SARS PLpro yeast -1%.
Screening COc1ccc(C(=O)C(CCC(CNC(C)(C)C)C(=O)c2ccc(OC)cc2)CNC(C)(C)C)cc1 (stereo unspecified) returned LASV entry inh 4µM*, Cruzain inh noDet 9%, RE007 growth inh 12%, NS1 function inh -2%, Marburg entry inh 2.1µM*, Cruzain inh Det -0.1%, 2A StopGo inconclusive and SARS PLpro yeast -33%.
For Cc1ccc(NC(=O)COC(=O)c2cccnc2Cl)cc1S(=O)(=O)N1CCCCC1 the results were LASV entry inh 3%, RE007 growth inh 5%, NS1 function inh 4%, Marburg entry inh -2%[46.1 µM], 2A StopGo -7% and SARS PLpro yeast 2%.
`O=C1CCN(S(=O)(=O)c2ccccc2)C2CCCCC12` (stereo unspecified) gave LASV entry inh 1%, Cruzain inh noDet -10%, RE007 growth inh 14%, NS1 function inh -2%, Marburg entry inh 17%, Cruzain inh Det 8.4%, 2A StopGo -6% and SARS PLpro yeast 1%.
For O=C(COC(=O)C1CCN(S(=O)(=O)c2cccs2)CC1)NCc1ccc(F)cc1 the results were LASV entry inh 6%, RE007 growth inh 7%, NS1 function inh -8%, Marburg entry inh 15%[46.1 µM], 2A StopGo -23% and SARS PLpro yeast 1%.
Cc1ccc(C(=O)c2c(C)oc3c2C(=O)C(=O)c2ccccc2-3)cc1 was read as LASV entry inh 7.1µM*, Cruzain inh noDet inconclusive, RE007 growth inh 25µM*, NS1 function inh -97%, Marburg entry inh 7.9µM*, Cruzain inh Det -4.3%, 2A StopGo inconclusive and SARS PLpro yeast -43%.
`Oc1ccccc1CNc1nccs1` gave LASV entry inh inconclusive, RE007 growth inh -2%, NS1 function inh 0%, Marburg entry inh 4%, 2A StopGo 38%[activator] and SARS PLpro yeast 3%.
Screening CC1=CC=CC2=NC(=O)CC(C)(C(=O)N(CC(=O)NC3CCCC3)Cc3ccc(Cl)cc3)N12 (stereo unspecified) returned LASV entry inh 2%, RE007 growth inh -14%, NS1 function inh 4%, Marburg entry inh -1%[46.1 µM], 2A StopGo 11% and SARS PLpro yeast 15%.
Screening COc1ccc(NS(=O)(=O)c2cccc(C(=O)NCC3(N4CCOCC4)CCCCC3)c2)cc1 returned LASV entry inh inconclusive, RE007 growth inh -15%, NS1 function inh 1%, Marburg entry inh inconclusive, 2A StopGo 24% and SARS PLpro yeast 1%.
COc1ccc(OCc2ccc(C(=O)O)cc2)cc1 was read as LASV entry inh -28%, Cruzain inh noDet -6%, RE007 growth inh 19%, NS1 function inh -140%, Marburg entry inh inconclusive, Cruzain inh Det 1.9%, 2A StopGo -28% and SARS PLpro yeast -12%.
For Cc1cccc(C)c1NC(=O)Nc1csc2c1CCCC2 the results were Cruzain inh noDet -5%, Marburg entry inh -13%[46.1 µM], Cruzain inh Det 0.1% and 2A StopGo -21%.
Screening Cc1c(Cl)cccc1NC(=O)C1CCN(S(C)(=O)=O)CC1 returned LASV entry inh 4%, RE007 growth inh 4%, NS1 function inh -3%, Marburg entry inh 9%[46.1 µM], 2A StopGo -4% and SARS PLpro yeast -1%.
`O=C(O)CC(=O)NC12CC3CC(CC(C3)C1)C2` gave LASV entry inh 3%&19%, Cruzain inh noDet -1%&-15%, RE007 growth inh 27%&-1%, NS1 function inh 8%&5%, Marburg entry inh -6%&4%, Cruzain inh Det -0.1%&-3.8%, 2A StopGo -13%&24% and SARS PLpro yeast -1%&-1%.
CCOC(=O)Nc1c(Cl)[nH]c(=O)n(C)c1=O was read as LASV entry inh inconclusive, RE007 growth inh 20%, Marburg entry inh 12% and 2A StopGo -12%.
COC(=O)CC1C(=O)NCCN1C(=S)Nc1ccccc1 (stereo unspecified) was read as LASV entry inh 0%, Cruzain inh noDet 5%, RE007 growth inh 4%, NS1 function inh 6%, Marburg entry inh -1%, Cruzain inh Det -1.1%, 2A StopGo -2% and SARS PLpro yeast -6%.
`CC(OC(=O)COc1cccc2c1OC(C)(C)C2)C(=O)Nc1ccc(S(N)(=O)=O)cc1` (stereo unspecified) gave LASV entry inh 10%, RE007 growth inh 12%, Marburg entry inh -1%, 2A StopGo -17% and SARS PLpro yeast 1%.
Screening O=C(Cn1cc2c(n1)CCCCC2)NCc1ccccn1 returned Cruzain inh noDet -11%, RE007 growth inh 1%, NS1 function inh inconclusive, Cruzain inh Det 4.2%, 2A StopGo 7% and SARS PLpro yeast -4%.
`NC(=O)CC[C@@H]1NC(=O)[C@@H]2CCCN2C(=O)c2cc([N+](=O)[O-])cc(I)c2NCCC[C@@H](C(N)=O)NC1=O` gave LASV entry inh 7%, Cruzain inh noDet -4%, RE007 growth inh 1%, NS1 function inh 9%, Marburg entry inh 27%, Cruzain inh Det -4.2%, 2A StopGo 2% and SARS PLpro yeast 11%.
Screening CCOc1ccc(-c2nnn(CC(=O)NCc3ccc(C)cc3)n2)cc1 returned LASV entry inh inconclusive, RE007 growth inh 6%, Marburg entry inh inconclusive, 2A StopGo -7% and SARS PLpro yeast -5%.
For COc1ccccc1N1CCN(C(=O)CN(C)S(=O)(=O)c2ccc3c(c2)c(=O)n(C)c(=O)n3C)CC1 the results were LASV entry inh -3%[46.1 µM], RE007 growth inh 11%, Marburg entry inh -28%[46.1 µM], 2A StopGo -27% and SARS PLpro yeast 1%.
`CCn1c2ccccc2c2cc(NC(=O)c3cccc([N+](=O)[O-])c3C)ccc21` gave LASV entry inh -28%, Cruzain inh noDet inconclusive, RE007 growth inh -4%, NS1 function inh 8%, Marburg entry inh inconclusive, Cruzain inh Det -3.9%, 2A StopGo -9% and SARS PLpro yeast 10%.
For C1CCC(Nc2nc3nonc3nc2N2CCSCC2)C1 the results were LASV entry inh -9%, RE007 growth inh -12%, NS1 function inh 6%, Marburg entry inh 4%, 2A StopGo -12% and SARS PLpro yeast 0%.
`COCCNc1cc(N)c([N+](=O)[O-])cc1[N+](=O)[O-]` gave LASV entry inh inconclusive, Cruzain inh noDet -16%, RE007 growth inh -10%, NS1 function inh -18%, Marburg entry inh -6%, Cruzain inh Det -14%, 2A StopGo -2% and SARS PLpro yeast -1%.
Cc1ccc(C)c(NC(=S)N(C)CCO)c1 was read as LASV entry inh 18%, RE007 growth inh 1%, Marburg entry inh -1%[46.1 µM], 2A StopGo 16% and SARS PLpro yeast 2%.
For COc1ccc(NC(=O)Nc2nnc(C)s2)cc1 the results were LASV entry inh 30%[46.1 µM], Cruzain inh noDet -5%, Marburg entry inh 20%[46.1 µM], Cruzain inh Det -1.0% and 2A StopGo 31%[activator].
Screening CCC(CC)C(=O)Nc1ccccc1-n1cccc1 returned LASV entry inh 11%, Cruzain inh noDet 4%, RE007 growth inh -13%, NS1 function inh 5%, Marburg entry inh 18%, Cruzain inh Det 8.2%, 2A StopGo -11% and SARS PLpro yeast 2%.
Screening CCOC(=O)c1cccc(NC(=O)/C=C/c2cccc([N+](=O)[O-])c2)c1 returned LASV entry inh -13%, Cruzain inh noDet -13%, RE007 growth inh 7%, NS1 function inh -8%, Marburg entry inh -29%, Cruzain inh Det -1.9%, 2A StopGo inconclusive and SARS PLpro yeast 3%.
For Cc1ccc(NC(=O)CC(=O)c2ccc([N+](=O)[O-])cc2)cc1S(=O)(=O)Nc1cccc(Cl)c1 the results were LASV entry inh inconclusive, RE007 growth inh -7%, NS1 function inh 14µM*, Marburg entry inh inconclusive, 2A StopGo -20% and SARS PLpro yeast 0%.
Screening CCn1cc(C(=O)OCC(=O)Nc2ccc(F)cc2F)c(=O)c2ccc(C)nc21 returned LASV entry inh 8%[46.1 µM], Cruzain inh noDet 5%, Marburg entry inh inconclusive, Cruzain inh Det 2.8% and 2A StopGo -4%.
CNc1nc(NCCOC23CC4CC(CC(C4)C2)C3)nc(OCC(F)(F)F)n1 was read as LASV entry inh inconclusive, Cruzain inh noDet inconclusive, RE007 growth inh 17%, NS1 function inh 0%, Marburg entry inh inconclusive, Cruzain inh Det -5.5%, 2A StopGo inconclusive and SARS PLpro yeast 0%.
S=c1[nH]nc(COc2ccccc2)n1/N=C/C=C/c1ccccc1 was read as LASV entry inh inconclusive, Cruzain inh noDet 6%, RE007 growth inh -1%, NS1 function inh 4%, Marburg entry inh 33%, Cruzain inh Det -11%, 2A StopGo -2% and SARS PLpro yeast -23%.
Screening CCOc1ccccc1NCc1cc(=O)oc2cc(C)ccc12 returned LASV entry inh -6%, RE007 growth inh 1%, NS1 function inh 4%, Marburg entry inh -18%[46.1 µM], 2A StopGo 0% and SARS PLpro yeast -2%.
`Cc1sc(-c2ccncc2)nc1OC(=O)c1ccc(F)cc1F` gave LASV entry inh -19%, RE007 growth inh -1%, Marburg entry inh 3%[46.1 µM], 2A StopGo -21% and SARS PLpro yeast 1%.

Not a hit list. About 4.7% of those tested had a hit in this group.
